HPGD inh: HPGD (human) dehydrogenase inhibition; P15428; purified HPGD, NADH fluorescence kinetic, PGE2 substrate; Potency, µM, for inactives: at the top dose activity change, negative = inhibition, hits mostly inhibitors; hit rate 4.3% among 150,000; active = well fitted inhibition curve with a large enough effect (not every such curve was filed as active); inconclusive = small, poorly fitted or top-dose-only effect, or another doubt; inactive = no such curve, though single readings can be large or run the other way;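 also: top concentration of the series not given in the record; plate controls included wells without enzyme; inactives centre near -10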
Target sequence (P15428 whole entry, looked up): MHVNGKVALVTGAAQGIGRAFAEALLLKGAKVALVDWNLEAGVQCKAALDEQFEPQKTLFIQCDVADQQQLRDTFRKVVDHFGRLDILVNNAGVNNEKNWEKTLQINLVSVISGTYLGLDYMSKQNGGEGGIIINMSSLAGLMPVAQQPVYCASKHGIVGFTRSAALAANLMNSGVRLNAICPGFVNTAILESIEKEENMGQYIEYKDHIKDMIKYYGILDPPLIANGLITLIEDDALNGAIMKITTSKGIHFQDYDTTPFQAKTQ
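20 nM HPGD preincubated 15 min at room temperature with compound in 50 mM Tris-HCl pH 8, 0.01% Tween 20. Started with 1 mM NAD+ and 30 uM prostaglandin E2; NADH fluorescence (360/450 nm) read 5 times over 30-s intervals, last minus first.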
An asterisk follows results filed as active; ? = inconclusive; & = joins results of further samples; [ ] = dose if it differs, or a comment. % is scaled to controls: 0 for no effect and ±100 for the full control effect; potency is read from the fitted curve at half-maximal effect. Only part of the results is shown, so the mix of outcomes need not match the whole.

mol	HPGD inh
N#Cc1ccc(CN2CC3(CCN(C(=O)c4ccco4)CC3)C2)cc1	-7.7%
c1ccc(-c2ccc(-c3ccc(C4=NCCN4)cc3)o2)cc1	?
O=S(=O)(c1cccc(-c2nnc(-c3ccc(Br)cc3)o2)c1)N1CCCCCC1	-22.2%
O=c1c(CCc2ccccc2)nc2cnc(N3CCNCC3)nc2n1Cc1ccc(F)cc1	?
Cc1cc(C)n(CC(=O)n2nc(C)cc2C)n1	0.2%
O=C(O)/C=C/C(=O)Nc1cccnc1	0.2%
CN(C)c1nc(Nc2ccccc2)nc(Oc2ccc(=O)[nH]n2)n1	-17.7%
Cc1sc2nc(SCC(=O)NCCOCCO)n(C)c(=O)c2c1C	-23.1%
COC(=O)CCCC[C@H]1SC[C@H]2NC(=O)N[C@]21O	-5.4%
COc1ccccc1N1CCN(C2CCN(C(=O)c3cccc(F)c3)CC2)CC1	-9.9%
CCSc1nnc(NC(=O)NCC(F)(F)F)s1	-5.8%
O=C(CP(=O)(CO)CO)c1ccc(Cl)cc1	-13.0%
Cc1cc2cc(C(c3nnnn3C3CCCC3)N(Cc3cccnc3)Cc3ccco3)c(=O)[nH]c2cc1C (stereo not given)	?
COC(=O)[C@H]1C[C@@H]1[C@H](NS(=O)(=O)c1ccccc1)c1ccccc1	0.3%&-3.3%
CC1=C(C(=O)OC2CCCCC2)C(c2cccnc2)n2ncnc2N1 (stereo not given)	-5.4%
Cc1ncc(CO)c(/C=N/NC(=O)c2ccc(O)cc2)c1O	?
COc1cccc(N2C(=O)C(Cc3c[nH]c4ccccc34)NC2=S)c1 (stereo not given)	-15.1%
CN(C)S(=O)(=O)c1ccc(C(=O)Oc2ccccc2)cc1	-17.4%
NC(=O)N/N=C\c1cc(Br)ccc1O	-21.1%
C=C(C)Cn1c(C2CC(=O)N(Cc3ccccc3)C2)nc2ccccc21 (stereo not given)	-24.9%
CCc1c(C)sc(NC(=O)c2ccco2)c1C(=O)N1CCCCC1	-4.2%
Cc1ccc(-c2nnn(CC(=O)NCC3COCCO3)n2)o1 (stereo not given)	-10.5%
Cc1cccc(C(=O)NC(=S)N2CCN(c3ccc([N+](=O)[O-])cc3)CC2)c1	-19.1%
CCCCCCN1C(=O)C(O)=C(C(C)=O)C1c1ccc(Cl)cc1 (stereo not given)	-16.4%
Cc1cc(C)c2ccc(C)[n+]([O-])c2c1O	-6.5%
O=C(c1ccccc1)c1ccc(CN2C(=O)c3ccccc3C2=O)o1	-4.1%
CCCn1c(NCc2ccc(C)o2)nc2ccccc21	-9.5%
CC(C)CC1C(=O)N2CCCC2C2(O)O[C@@](NC(=O)C3C=C4c5cccc6[nH]c(Br)c(c56)CC4N(C)C3)(C(C)C)C(=O)N12 (stereo not given in full)	-16.1%
CCCn1cc(S(=O)(=O)CC(=O)N2CCc3ccccc32)c2ccccc21	?
Cc1ccc(N/N=C/c2c(O)cc(C)oc2=O)cc1	-4.7%
O=C(O)C1(NS(=O)(=O)c2ccc(F)c(Cl)c2)CCCCC1	2.1%
COc1ccc(-c2cc(-c3ccccc3)c(C#N)c(S(C)=O)n2)cc1 (stereo not given)	?
CN(C)C(C)(C)C#CCCCCC#CC(C)(C)N(C)C	0.4%
CN1CCN(C(=O)c2ccccc2NC(=O)Cc2ccccc2)CC1	-0.1%
O=C(/C=C/c1ccccc1Cl)NCc1cccs1	14.1µM*
CCc1ccc(NC(=O)C(=O)NCCN2CCN(Cc3ccc([N+](=O)[O-])cc3)CC2)cc1	-3.0%
C=CCn1c(SCC(=O)N2CCN(c3ccc(F)cc3)CC2)nnc1-c1ccco1	-3.2%
CCOC(=O)C1CCCN(C(=O)Cn2cnc3c2c(=O)n(C)c(=O)n3C)C1 (stereo not given)	-7.4%
CCOC(=O)c1c(-c2ccccc2)csc1NC(=O)CCN1CCOCC1	-18.5%
CCc1cc2c(NCCC(=O)O)nc(C)nc2s1	-26.6%

2 successive entries from above, quoted:
mol	HPGD inh
CCOC(=O)c1c(-c2ccccc2)csc1NC(=O)CCN1CCOCC1	-18.5%
CCc1cc2c(NCCC(=O)O)nc(C)nc2s1	-26.6%

Next compounds follow:
mol	HPGD inh
CC(=O)C1=C(O)C(=O)N(CCc2c[nH]c3ccccc23)C1c1ccco1 (stereo not given)	-10.8%
c1cnc2ccc(C(c3nnnn3C3CCCC3)N3CCSCC3)cc2c1 (stereo not given)	-6.9%
COc1ccccc1-c1nc(C#N)c(N2CCN(c3ccccc3)CC2)o1	?
CCOC(=O)c1[nH]n(-c2ccc(Cl)cc2)c(=O)c1C	-6.5%
COc1cc(/C=N/NC(=O)CCn2c3ccccc3c3ccccc32)cc(OC)c1OC	?
CC(C)(C)N(NC(=O)Nc1ccc(F)cc1)C(=O)c1ccccc1	-3.1%
O=S(=O)(Nc1ccc2c(c1)OCO2)c1cccs1	-29.6%
O=S(=O)(NCCCc1ccccc1)c1ccccc1	-10.1%
COC(=O)CCC(=O)c1oc2ccc(Br)cc2c1N	-21.4%
Cc1cc(C(=O)CC#N)c(C)n1-c1ccc(OC(F)F)cc1	-7.2%
Cc1c(N=Cc2ccco2)c(=O)n(-c2ccccc2)n1C	-10.5%
COc1cccc(NS(=O)(=O)c2nc3nc(C)cc(C)n3n2)c1	-9.1%
Cc1cc(C(=O)COC(=O)Cc2n[nH]c(=O)c3ccccc23)c(C)n1-c1ccc2c(c1)OCO2	-19.4%
CCCN=C(C)C1=C(O)c2ccccc2C1=O	-20.8%
O=C(NCc1ccco1)c1cc(-c2ccccc2)c(N2CCOCC2)s1	-18.7%
CC(=O)/C=C\C1[C@]2(C)CCCC(C)(C)C2CC[C@@]1(C)O (stereo not given in full)	-12.5%
O=C(Cc1cccs1)N(Cc1cccs1)C1(C(=O)NC2CCCCC2)CCCCC1	-29.6%
Cc1cccc(NC(=S)c2nc3ccccc3s2)c1	-9.8%
CN1C(=O)NC(c2ccccc2)C2=C1CN(Cc1ccco1)C2=O (stereo not given)	-14.9%
COC(=O)c1ccc(CSc2ncnc3c2oc2ccccc23)o1	-15.1%
CCOC(=O)c1ccc(NC2OC(=O)c3ccccc32)cc1 (stereo not given)	-2.8%
COc1ccc(CS(=O)(=O)/C(Cl)=C(/Cl)C(=O)Nc2ccc(OC)nc2)cc1	-8.7%
OCC12COC(c3ccccc3)N1C(c1ccccc1)OC2 (stereo not given)	-5.8%
O=C(C1CCCO1)N1CCN(Cc2nc3ccccc3c(=O)[nH]2)CC1 (stereo not given)	-10.6%
N#Cc1c(NC(=O)CN2CCN(C(=O)c3ccco3)CC2)sc2c1CCCCC2	8.91µM*
COc1ccc(C2=NCCc3cc(OC)c(OC)cc32)cc1OC	-18.0%
CCOC(=O)CSc1nc2c(sc(=S)n2Cc2ccco2)c(=O)n1-c1ccc(F)cc1	-15.6%
Cc1ccccc1N(CC(=O)N/N=C/c1ccccc1Cl)C(=O)c1ccccc1	-13.6%
CCC(Sc1nc2n[nH]c(C)c2c(=N)n1-c1ccc(C)c(Cl)c1)C(=O)N1CCOCC1 (stereo not given)	-16.1%
O=C(Cc1sc(-c2ccccc2Cl)nc1-c1ccccc1)Nc1ccc(F)cc1	-28.5%
O=C(NNc1cccc(Cl)n1)c1c(Cl)cccc1Cl	-8.5%
COc1ccc(Cn2nnnc2CN(Cc2cc3cc(C)ccc3[nH]c2=O)C2CCCC2)cc1	-16.2%
O=C(CCC(=O)OCc1ccc(C(=O)Oc2ccc(Cl)cc2)cc1)Nc1ccccc1	-7.7%
COc1ccc(OC)c(-n2c(=O)c3ccccc3c3ccccc3c2=O)c1	-5.8%
O=C(Nc1ccccn1)c1ccc([N+](=O)[O-])o1	141.6%[activator]
CC(=O)NC(CC(=O)NC1CCCCCC1)c1ccccc1 (stereo not given)	0.7%
CCOc1ccccc1C(=O)N1CCOCC1	-2.2%
C=CCn1c(=N)n(CC(O)COc2ccc(OC)cc2)c2ccccc21 (stereo not given)	-7.3%
CCC(C)Sc1nnc(Cc2cc(=O)[nH]c(=O)[nH]2)n1-c1ccc(F)cc1 (stereo not given)	-16.5%
CC(C)Cn1c(N)c(C(=O)COC(=O)c2cc(-c3ccco3)nc3ccccc23)c(=O)n(C)c1=O	?
CCOCCCn1c(SCC(=O)NC(C)(C)C)nc2ccccc2c1=O	0.7%
CCC(C)(C)C(=O)O[C@@H]1C[C@H](C)C=C2C=C[C@H](C)[C@@H](CC[C@H]3C[C@@H](O)CC(=O)O3)[C@H]21	1.6%
CCC(=C(CC)c1ccc(O)cc1)c1ccc(O)cc1	-2.8%
CC(=O)N1CCC2(CC1)CCN(c1ccc(-c3ccccc3)cc1)CC2	?
O=C(Cc1cccc2ccccc12)Nc1ccc(-c2cc3ccccc3oc2=O)cc1	?
Cc1nc2ccccc2cc1OCc1ccc(F)cc1	2.4%
CCN(CCC(=O)Nc1ccc(Br)c(C)c1)Cc1ccccc1	-12.8%
COc1ccc(C(=O)Nc2nc3ccc(S(C)(=O)=O)cc3s2)cc1	?
Cc1ccc(-c2cc(C)nc3nc(N)nn23)cc1	?
Cc1cc(C)n(-c2ccc(C(=O)Nc3nnc(C4CC4)s3)cc2)n1	-24.4%

(cont.)
mol	HPGD inh
CCOC(=O)c1cc2c(ccn2C)n1CC(=O)N1CCC(Cc2ccccc2)CC1	-8.5%
CCCN(CCC)CCCNS(=O)(=O)c1ccc2c(c1)oc(=O)n2C	-7.4%
CCOc1ccc(S(=O)(=O)Nc2ccccn2)c2ccccc12	?
O=S(=O)(NCc1cccnc1)c1cccs1	-3.9%
COc1cccc(NC(=O)COc2ccc(C)cc2)c1	-23.7%
COc1ccc(C(=O)N2CCC[C@@]3(CCN(Cc4ccc(C#N)cc4)C3)C2)cc1	15.8µM*
Cc1c(C#N)c(N=CN(C)C)c(C(=O)c2ccccc2)n1-c1ccccc1	-2.3%
CCOC(=O)N1CCC(Nc2c(NCCCOC)c(=O)c2=O)CC1	0.5%
Nc1c(-c2ccccc2)c(CSc2nc3ccccc3[nH]2)nn1-c1cccc(Cl)c1	?
S=C(NCCc1ccccc1)N1CCN(C(c2ccccc2)c2ccccc2)CC1	-13.0%
O=C(NCc1ccc(N2CCCC2=O)cc1)NC1CCCCC1	22.4µM*
CCOc1ccc(-c2nnc(-c3cccs3)o2)cc1	?
COc1cc(C)ccc1OCCOCCOc1ccc([N+](=O)[O-])cc1	-17.5%
Cc1nnc(NC(=O)Cn2cnc3c2c(=O)n(C)c(=O)n3C)s1	-2.1%
CCCc1cc2c(cc1NC(=O)c1ccc(C)cc1)OCO2	-7.4%
Cc1ccc(-c2nnc(SCC(=O)NC3CCS(=O)(=O)C3)nc2-c2ccc(C)cc2)cc1 (stereo not given)	-10.1%
O=C(NC(=S)NCC1CCCO1)C(c1ccccc1)c1ccccc1 (stereo not given)	-4.8%
CCC(=O)c1ccc(Oc2ccc(C(=O)c3ccc(C)cc3)cc2[N+](=O)[O-])cc1	-27.3%
CCOc1cc(/C=N/O)cc(Br)c1OCc1ccc(Cl)cc1	-27.0%
Cc1cc(Nc2ccccc2)c2c([N+](=O)[O-])ccc(C)c2n1	-27.6%
C=CCOc1nc2c(c(=O)n(C)c(=O)n2C)n1Cc1c(Cl)cccc1Cl	-0.9%
CC(C)Cn1cnc2sc3c(c2c1=N)CCCC3	-7.8%
COc1ccc(N2CCN(c3ncnc4c3[nH]c3ccccc34)CC2)cc1	-6.1%
CCOc1ccccc1NC(=O)C1CCN(C(=O)NCc2ccccc2)CC1	-4.2%
CSCc1ccc(C(=O)Nc2cc(C)cc(C)c2)cc1	-12.7%
COc1ccccc1-c1cc(C(=O)NCCCn2ccnc2)no1	-21.8%
CCOC(=O)N/N=C/c1ccc(N2CCOCC2)s1	-24.2%
COCc1[nH]nc2c1C(c1ccc(OC)cc1)C(C#N)=C(N)O2 (stereo not given)	-10.0%
O=C(NCCCn1ccnc1)c1cc(C(=O)C2CC2)c[nH]1	-3.5%
C=CCn1c(SCc2nc(N)nc(N(C)C)n2)nnc1-c1cccnc1	-10.5%
Cc1ccc(NCCC(=O)c2ccc(Br)cc2)cc1	-7.0%
O=C(NC(Cc1ccccc1)c1ccc2c(c1)OCCCO2)c1ccccc1F (stereo not given)	-4.1%
CCOc1cc(C(N)=O)cc(Br)c1OCC	-6.0%
CN1CCOCCOCCN(C)C1=O	0.9%
CO/N=C(\Cn1ncc(N2CCCC2)c(Cl)c1=O)c1ccc(Cl)cc1	-13.7%
O=C(Cn1c(=O)sc2ccccc21)Nc1ccccc1	-8.1%
CCCOc1ccc2ccccc2c1/C=N/n1c(C)nnc1-n1nc(C)cc1C	-13.9%

Compounds above containing a tert-butyl group, in the order listed:
mol	HPGD inh
CC(C)(C)N(NC(=O)Nc1ccc(F)cc1)C(=O)c1ccccc1	-3.1%
CCOCCCn1c(SCC(=O)NC(C)(C)C)nc2ccccc2c1=O	0.7%

Screening results (PubChem)
